Screening data: PubChem, Johns Hopkins Ion Channel Center
CHT inh: inhibitors of human choline transporter CHT; High affinity choline transporter 1 (Homo sapiens), Q9GZV3; CHT-expressing cells, membrane potential dye, choline response; stronger effect = lower value; B-score at 10 µM; 310,000 tested, 0.86% active; AID 488975, 2010;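 active = B-score over 3 SD under the library average, and starting fluorescence ratio not unusually high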;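 also: choline stimulus applied at its EC90 after an EC20 pre-addition; B-score computed on integrated fluorescence ratio after choline addition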
Target sequence (Q9GZV3 whole entry, looked up): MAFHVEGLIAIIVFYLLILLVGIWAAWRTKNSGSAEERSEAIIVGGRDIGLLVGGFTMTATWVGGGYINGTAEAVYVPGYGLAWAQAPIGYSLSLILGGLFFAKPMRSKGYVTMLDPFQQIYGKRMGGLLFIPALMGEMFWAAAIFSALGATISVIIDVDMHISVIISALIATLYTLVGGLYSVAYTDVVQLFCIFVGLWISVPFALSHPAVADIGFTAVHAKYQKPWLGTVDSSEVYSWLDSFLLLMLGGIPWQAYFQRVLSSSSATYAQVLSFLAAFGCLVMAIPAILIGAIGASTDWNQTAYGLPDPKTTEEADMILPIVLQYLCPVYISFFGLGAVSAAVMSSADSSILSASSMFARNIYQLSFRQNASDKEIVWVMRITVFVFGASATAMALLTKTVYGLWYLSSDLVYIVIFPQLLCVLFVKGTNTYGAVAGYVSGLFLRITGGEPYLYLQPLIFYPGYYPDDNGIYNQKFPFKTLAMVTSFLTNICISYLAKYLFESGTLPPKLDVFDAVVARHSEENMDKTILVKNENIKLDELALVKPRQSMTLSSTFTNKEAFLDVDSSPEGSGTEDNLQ
Kir21 inh: inhibitors of mouse Kir2.1 inward-rectifier potassium channel; Inward rectifier potassium channel 2 (Mus musculus), P35561; HEK293-Kir2.1, FluxOR thallium flux fluorescence; stronger effect = lower value; B-score at 10 µM; 310,000 tested, 0.85% active; AID 1672, 2009;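 active = fluorescence ratio B-score at or below minus 3 SD of library scores, with starting-brightness B-score within 2 SD, cut at about -4.2 in these data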;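 also: channel flux triggered by added potassium and thallium sulfate stimulus; B-score of peak minus minimum fluorescence over baseline after thallium stimulus; more negative B-score means stronger Kir2.1 block with less thallium influx; some compounds called inactive have numbers as strong as hits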
Target sequence (P35561 whole entry, looked up): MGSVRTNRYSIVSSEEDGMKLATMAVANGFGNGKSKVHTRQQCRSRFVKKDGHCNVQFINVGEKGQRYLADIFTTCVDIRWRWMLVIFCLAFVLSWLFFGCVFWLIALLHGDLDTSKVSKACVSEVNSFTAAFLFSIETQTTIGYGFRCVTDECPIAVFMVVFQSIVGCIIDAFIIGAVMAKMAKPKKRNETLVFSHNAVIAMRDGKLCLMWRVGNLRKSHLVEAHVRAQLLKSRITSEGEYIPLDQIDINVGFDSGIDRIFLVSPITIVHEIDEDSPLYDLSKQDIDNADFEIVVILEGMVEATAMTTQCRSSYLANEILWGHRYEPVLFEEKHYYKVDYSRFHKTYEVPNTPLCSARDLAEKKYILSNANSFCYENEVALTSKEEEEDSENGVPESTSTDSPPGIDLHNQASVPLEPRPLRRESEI
Active calls of the source: *; i = inactive; x = not tested or not shown.

canonical_smiles	CHT inh	Kir21 inh
O=C(c1ccc(N2C(=O)C3C4CC(C(Br)C4Br)C3C2=O)cc1)N1CCCCC1 (centres undefined)	x	0.95
Nc1ccccc1C(=O)N1CCCC1	i	-0.03
CC(=O)Nc1ccc(S(=O)(=O)N2CCN(CC(O)COc3ccc4ccccc4c3)CC2)cc1 (centres undefined)	i	0.87
Cc1cccnc1Oc1ncccc1N	i	0.38
O=C(O)c1ccc2c(c1)CCC2	i	-0.5
COc1ccc(C(=O)/C=C/c2ccc(OCc3ccccc3)cc2)cc1CSCC(=O)O	i	-1.72
COC(=O)[C@]1(C)N[C@H](c2ccc(-c3ccc(Cl)c(Cl)c3)cc2)[C@@H]2C(=O)N(C)C(=O)[C@@H]21	i	-0.74
COC(=O)CCCC(=O)Nc1c(F)c(F)c(F)c(F)c1F	i	-0.17

Shown with values under each structure: two of the compounds above.
Each structure is followed by: CHT inh, Kir21 inh
Nc1ccccc1C(=O)N1CCCC1
  i, -0.03
CC(=O)Nc1ccc(S(=O)(=O)N2CCN(CC(O)COc3ccc4ccccc4c3)CC2)cc1 (centres undefined)
  i, 0.87

Additional compounds
canonical_smiles	CHT inh	Kir21 inh
COc1ccc(C(=O)OC(C)C(=O)NC(C)CCc2ccccc2)c(OC)c1 (centres undefined)	i	-1.37
CC(C)(C)C(=O)Nc1ccc(C(=O)NNC(=O)Cc2ccccc2)cc1	i	0
CCc1ccc(Nc2nc(N3CCOCC3)nc(N3CCOCC3)n2)cc1	i	1.54
CCN(CC)CCCNC(=O)c1sc2nc(-c3ccc(F)cc3)cn2c1C	i	0.87
Cc1nn(C)cc1CNC(=O)COc1ccc(Cl)cc1Cl	i	-0.26
NC(=O)c1nsc(C(=O)N(Cc2ccco2)C(C(=O)NCc2ccccc2)c2ccc(O)cc2)c1N (centres undefined)	i	-0.14
S=C(c1ccc(-c2ccccc2)cc1)N1CCOCC1	i	0.01
CC(O)(CS(=O)(=O)Cc1cccc(C(F)(F)F)c1)C(=O)Nc1cccc(C(F)(F)F)c1 (centres undefined)	i	0.82
OC1C2(Cc3ccccc3)CN3CCN(C2)CC1(Cc1ccccc1)C3 (centres undefined)	i	0.06
CCCCn1c(N)c(N(CC(C)C)C(=O)c2cccc(S(=O)(=O)N3CCN(C)CC3)c2)c(=O)[nH]c1=O	i	-0.56
O=C(O)c1ccc(NCc2nc3ccccc3n2CCOc2ccccc2Cl)cc1	i	1.5
CCOc1ccc(N(CC(=O)NC2CCCC2)C(=O)Cn2nnc(-c3ccc(C)o3)n2)cc1	x	-1.1
CCCn1nnc(NC(=O)/C=C/c2ccccc2)n1	i	-1.09
CC(CN1CCCCC1)OC(=O)c1ccc(Cl)cc1 (centres undefined)	i	0.54
COCCNC(=O)c1ccc(NS(C)(=O)=O)cc1	i	0.25
CCc1ccc(C2C3=C(CC(C)(C)CC3=O)OC3=C2C(=O)CC(C)(C)C3)cc1	i	-1.31
Cc1ccc(C(=O)N(c2ccccn2)C(C)c2ccco2)cc1C (centres undefined)	i	-3.79
Cc1ccc(-n2nnnc2SCC(=O)c2cc(C)n(CC3CCCO3)c2C)cc1 (centres undefined)	i	1.86
CCCS(=O)(=O)Nc1cccc(-c2nc3cccnc3s2)c1	i	0.02
CC1=C(C(=O)Nc2ccccc2)C(c2cc(CN3CCOCC3)cs2)C2=C(CCCC2=O)N1 (centres undefined)	i	0.16
CSc1nnc2c3c4c(sc3nc(-n3nc(C)cc3C)n12)COC(C)(C)C4	x	2.19
CCOC(=O)C1=C(C)N(c2ccccc2)C(=O)/C1=C\c1ccc(O)c(OC)c1	i	1.39
Cc1ccc(Nc2nc3c(c(=O)[nH]2)CCCC3)cc1	i	-0.33
COc1ccc(OC)c(CN(CCN2CCOCC2)S(=O)(=O)c2ccc(NC(C)=O)cc2)c1	i	-0.09
COc1ccccc1-n1cnc(N)c1C(=O)c1ccccc1	i	-0.1
CCOc1cc(N2CCOCC2)c(OCC)cc1NC(=O)C(C)(C)C	i	-0.72
Cc1nn(CC(=O)Nc2ccc3c(c2)nc(CCN2CCCCC2)n3C)c(=O)c2ccccc12	i	1.07
CCOc1ccc2[nH]cc(C(=O)N3CCN(CC)CC3)c(=O)c2c1	i	2.13
CCOC(=O)c1[nH]c(C)c(C(=O)NCc2ccc(Cl)cc2)c1C	i	-0.51
CCc1ccccc1NC(=O)c1ccc(F)c(S(=O)(=O)N2CCC(C(N)=O)CC2)c1	i	1.27
CCCn1c(N)c(C(=O)CSc2nc(C)cs2)c(=O)[nH]c1=O	i	-0.66
COc1cccc(NC(=O)CCNC(=O)c2ccccc2Cl)c1	i	0.32
Cc1nn(Cc2ccccc2)c2c1C(c1ccncc1)C(C#N)=C(N)O2 (centres undefined)	i	0.81
COC(=O)c1ccc(C(=O)OC)c(NC(=S)N2CCC(C(N)=O)CC2)c1	i	-1.21
Cc1ccc(NC(=O)CCC(=O)NNS(=O)(=O)c2ccccc2)c(C)c1	i	0.23
CCCC(=O)NCCc1ccc(S(N)(=O)=O)cc1	i	1.19
COc1ccc(C2c3c4c(n(C)c3CCN2C)CCN(C)C4c2ccc(OC)cc2)cc1 (centres undefined)	i	-2.45
Cc1cc(C)c2sc(N(CCCN(C)C)C(=O)c3ccc(S(=O)(=O)N(C)Cc4ccccc4)cc3)nc2c1	i	-0.5
S=C(NNC(=S)NC1CC2C=CC1C2)NC1CC2C=CC1C2 (centres undefined)	i	-0.32
CCc1nn(CCCC(=O)NCc2ccccc2C)c(=O)c2cc3occc3n12	i	-2.03
C/C(Cn1nc([N+](=O)[O-])cc1C)=N\NC(=O)c1ccc(O)cc1O	i	0.33
COc1cc(-n2c(=O)c3ccccc3n(CC(=O)OCc3ccccc3)c2=O)cc(OC)c1OC	i	-1.95
O=C(NN/C(=N/S(=O)(=O)c1ccc(Cl)cc1)c1ccccc1)c1ccc(O)cc1	i	-0.73
C=CCn1c2ccccc2c2nnc(SCC(=O)O)nc21	i	0.11
COc1ccc(S(=O)(=O)Nc2c(C(=O)O)[nH]c3ccc(OC)cc23)cc1	i	-0.98
C1=CCC(/C=N/n2cnnc2)CC1 (centres undefined)	i	-0.04
CNC(=O)N(O)C1N(/N=C/c2c(F)cccc2Cl)C(=S)SC1(C)C (centres undefined)	i	2.11
O=C(O)CCc1ccc(-c2ccc(Br)cc2)n1-c1ccc(O)cc1	i	1.24
CCc1cccc(C)c1NC(=O)c1cccnc1	i	0.49
Cc1c(N=Cc2ccc(Cl)o2)c(=O)n(-c2ccccc2)n1C	i	0.93
COc1ccc(NC(=O)CC(c2ccc(F)cc2)c2ccc(OC)cc2)cc1 (centres undefined)	i	0.02
COc1cccc(Nc2nnc(SCC(=O)N(CC(C)C)CC(C)C)s2)c1	i	-0.12
Cc1cccc(NC(=O)c2cc(S(=O)(=O)N3CCc4ccccc43)cn2C)c1	i	1.91
CC(C)Oc1ccc(NC(N)=O)cc1	i	1.07
Cc1cccc(OCC(=O)Nc2ccc(S(=O)(=O)Nc3cc(C)nc(C)n3)cc2)c1	i	0.22
Cc1sc2ncnc(N3CCCC(C)C3)c2c1C (centres undefined)	i	0.21

(list continues)
canonical_smiles	CHT inh	Kir21 inh
O=C1c2ccccc2C(O)(Cc2ccccc2)N1Cc1ccco1 (centres undefined)	i	-1.63
O=C(NCCOc1ccccc1-c1ccccc1)c1ccco1	i	-3.94
COC(=O)c1c(NC(=O)CN2CCC3(O)CCCCC3C2c2ccc(F)cc2)sc(C)c1C (centres undefined)	i	0.06
O=C(CCN1CCN(c2ccccc2F)CC1)Nc1ccccc1Cl	i	-0.97
O=C(Cn1ncc(N2CCOCC2)c(Cl)c1=O)c1ccc(Cl)cc1	i	-0.01
N#Cc1c(NC(=O)/C=C/C(=O)O)sc2c1CCN(Cc1ccccc1)C2	i	-3.18
CCC(C)(C)n1nnnc1C(c1ccc(OC)c(OC)c1)N1CCN(c2ccccc2)CC1 (centres undefined)	i	-0.12
O=C(NCCCCc1ccccc1)C1CC(c2ccc(C(F)(F)F)cc2)=NO1 (centres undefined)	i	0.66

(more compounds)
SMILES | CHT inh | Kir21 inh
COCCCNS(=O)(=O)c1ccc(S(=O)(=O)N2CCCC2)cc1 | i | 0.77
CCOc1cc(/C=C2\SC(=S)N(Nc3ccccc3)C2=O)ccc1O | i | -0.1
COc1ccc(-c2nc(C#N)c(NCc3ccco3)o2)cc1 | i | 1.48
OC(COc1ccc(Cl)cc1)CSc1ccccn1 (centres undefined) | i | 2.21
Cc1cc([N+](=O)[O-])nn1CC(=O)c1ccccc1 | i | 0.09
COc1ccc(NC(=O)C(=O)N/N=C/c2cccnc2)cc1 | i | -0.07
CCOc1ccc(N2C(=O)CC(SC(=NC)Nc3ccc(F)cc3)C2=O)cc1 (centres undefined) | i | -0.06
O=C(COc1ccc(Br)cc1)NC(=S)Nc1ccccc1N1CCOCC1 | i | 0.08
CC1(C)CC(=O)C=C(Nc2ccccc2O)C1 | i | -1.42
COc1ccccc1C(=O)Nc1nnc(-c2ccco2)s1 | i | 1.23
CCOC(=O)c1nnc(-c2ccccc2)nc1Sc1ccccc1Cl | i | -1.2
CCCN(CC(=O)Nc1ccc(Cl)cc1Cl)C(=O)/C=C/c1cccc([N+](=O)[O-])c1 | i | -0.11
Cc1nnc(NC(=O)CSc2nnc3scc(-c4ccc(C)c(C)c4)n23)s1 | i | 1.23
COc1ccc(NS(=O)(=O)c2ccc3c(c2)CCN3C(=O)CCC(=O)O)cc1OC | i | 1.22
COc1ccc(C(c2nnnn2C2CCCC2)N2CCN(c3ccccc3)CC2)cc1 (centres undefined) | i | -0.63
O=C(COc1ccccc1)N=C1SC2CS(=O)(=O)CC2N1c1ccccc1 (centres undefined) | i | 1.14
CC(C)C(c1nnnn1C1CCCC1)N1CCN(C(=O)c2ccco2)CC1 (centres undefined) | i | 2.78
Cc1ccc(-c2nc3ccsc3c(=O)[nH]2)cc1 | i | -0.7
Cc1cc(NC(=O)CCOc2ccccc2)no1 | i | -0.21
O=C(CCCn1cnc2ccccc2c1=O)Nc1ccccc1F | i | -0.55

Another view of part of the listing above.
Every second line gives: CHT inh	Kir21 inh
CCCn1c(N)c(C(=O)CSc2nc(C)cs2)c(=O)[nH]c1=O
  i	-0.66
COC(=O)c1c(NC(=O)CN2CCC3(O)CCCCC3C2c2ccc(F)cc2)sc(C)c1C (centres undefined)
  i	0.06
NC(=O)c1nsc(C(=O)N(Cc2ccco2)C(C(=O)NCc2ccccc2)c2ccc(O)cc2)c1N (centres undefined)
  i	-0.14
CCc1ccc(Nc2nc(N3CCOCC3)nc(N3CCOCC3)n2)cc1
  i	1.54

(next part)
SMILES | CHT inh | Kir21 inh
O=C(O)c1ccccc1-c1ccccc1C(=O)Nc1ccc2c(c1)CCC2 | i | -0.45
Cc1ccc(-c2ccc(/C=N/n3cnnc3)o2)cc1Cl | i | 1.24
COc1ccc(CNC(=O)CN(Cc2ccccc2)S(=O)(=O)c2ccc(Cl)cc2)cc1 | i | -0.85
O=C1CCCN1c1ncc(S(=O)(=O)c2ccc([N+](=O)[O-])cc2)s1 | i | -1.43
CC(C(=O)c1c[nH]c(C(N)=O)c1)c1ncc(C(F)(F)F)cc1Cl (centres undefined) | i | -0.08
CCc1cc(=O)oc2c(CN3CCN(C)CC3)c(O)ccc12 | i | 1.14
Cc1ccc(C)c(OCC(=O)Nc2ccccc2N2CCCC2)c1 | i | -3.61
Cc1ccc(C(=O)COC(=O)CNC(=O)c2cccs2)cc1 | i | -0.07
CCOC(=O)C1=C(C)OC(N)=C(C#N)C1c1ccoc1 (centres undefined) | i | 0.2
Cc1nn(-c2ccccc2)c(C)c1/C=N/NC(=O)CSc1nnc(SCc2ccccc2Cl)s1 | i | 0.73
Cc1cc2nc(/C=C/c3cccnc3)[nH]c2cc1C | i | 0.01
COCC(COS(N)(=O)=O)Cc1ccccc1 (centres undefined) | i | 0.14
NC(=O)NC(=O)COC(=O)c1cccnc1Nc1ccccc1F | i | -2.35
CCN(CC)C(=O)c1ccccc1NC(=O)CN1C(=O)c2ccccc2C1=O | i | 0
CCn1cc(C(=O)NCc2ccco2)c(=O)c2cc(S(=O)(=O)N3CCC(C)CC3)ccc21 | i | 0.88
O=C(Nc1ccccn1)C12CC3CC(C1)CC(C(=O)Nc1ccccn1)(C3)C2 | i | 0.01
CCOc1ccccc1/C=C/c1onc(C)c1S(=O)(=O)N1CCC(C(=O)NC(C)C)CC1 | i | 1.06
COc1ccc(C2=NOC(C(=O)Nc3c(C)n(C)n(-c4ccccc4)c3=O)C2)cc1OC (centres undefined) | i | -1.6
CN(C(=O)CSc1nnc(-c2n[nH]c3ccccc23)o1)c1ccccc1 | i | -0.43
CCCCNC(=O)Cn1cnc2sc(C)c(S(=O)(=O)N3CCN(c4ccccc4OC)CC3)c2c1=O | i | -1.21
O=C(CSc1nnc(-c2ccccc2)c(-c2ccccc2)n1)N1CCc2ccccc21 | i | -1.37
CCCSc1nnc2n(C)c(=O)c3c4c(sc3n12)CCC4 | i | -0.38
CCC1=C(OC(=O)N(CC)CC)N2C(=O)OC(=NCc3ccccc3)[C@]2(C)[C@H]2C1=CC[C@H]1C(=O)N(CC)C(=O)[C@H]12 | i | 0.21
COc1ccc(N(C)C(=O)CCS(=O)(=O)c2cccc3nsnc23)cc1 | i | -1.31
O=C1CN(C(=O)c2ccc(Br)o2)C(c2ccccc2)c2cc(Cl)ccc2N1 (centres undefined) | i | -1.44
c1ccc(-c2cc(N3CCCCC3)nc(-c3ccccc3)n2)cc1 | i | 1.66
CC1CCC(C(=O)NC(C(=O)NCCCN2CCOCC2)C(C)C)CC1 (centres undefined) | i | 0.01

Some of the compounds tested, and most or all hits are left out here.
